Bioassay records from PubChem.
MbtI inh: MbtI salicylate synthase inhibition. P9WFX0. purified MbtI enzyme, fluorescence intensity read-out. inhibition, %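 (about 17 µg/mL by stock and volumes)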. hit rate 0.89% among 100,000;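 active = above 50% in both replicates, above 80% if mildly self-fluorescent; inactive = the rest, strongly fluorescent compounds included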;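 also: 0% = mean of negative and 100% = mean of positive controls; one replicate is shown; some compounds called inactive have numbers as strong as hits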
Polio RdRp inh: poliovirus RNA polymerase inhibition. poliovirus polymerase elongation, fluorescence polarization; active compounds read low. hit rate 0.66% among 150,000. P03300. % elongation, % (compound at 16.7 µg/mL); in the data active = % elongation below about 90%; also: some results filed as inactive read as strong as hits
Target sequence (P03300 1749-2209 limits assumed): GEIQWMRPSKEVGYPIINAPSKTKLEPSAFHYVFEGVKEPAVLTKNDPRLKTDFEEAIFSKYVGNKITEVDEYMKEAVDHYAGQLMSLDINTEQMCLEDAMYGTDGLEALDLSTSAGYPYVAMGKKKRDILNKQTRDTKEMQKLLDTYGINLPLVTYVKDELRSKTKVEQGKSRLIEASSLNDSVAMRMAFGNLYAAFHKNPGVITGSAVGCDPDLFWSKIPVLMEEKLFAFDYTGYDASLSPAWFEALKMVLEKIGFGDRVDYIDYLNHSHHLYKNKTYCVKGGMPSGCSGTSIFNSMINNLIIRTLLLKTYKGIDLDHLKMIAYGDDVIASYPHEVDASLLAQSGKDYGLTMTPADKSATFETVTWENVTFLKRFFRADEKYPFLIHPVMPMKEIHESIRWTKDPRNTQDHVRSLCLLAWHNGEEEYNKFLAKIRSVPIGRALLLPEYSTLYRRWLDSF
MenB inh: Mtb MenB enzyme inhibition. MenB enzyme assay, absorbance read-out; some hits fall short of the stated cut. hit rate 0.43% among 100,000. inhibition, %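 (about 12 µg/mL by stock and volumes)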. P9WNP5;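 active = mean of two replicates above 30%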;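 also: 0% = no compound and 100% = wells with inactive enzyme; the first replicate is given; strong numbers were not always called active; inactives centre near -10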
Target sequence (P9WNP5 whole entry, looked up): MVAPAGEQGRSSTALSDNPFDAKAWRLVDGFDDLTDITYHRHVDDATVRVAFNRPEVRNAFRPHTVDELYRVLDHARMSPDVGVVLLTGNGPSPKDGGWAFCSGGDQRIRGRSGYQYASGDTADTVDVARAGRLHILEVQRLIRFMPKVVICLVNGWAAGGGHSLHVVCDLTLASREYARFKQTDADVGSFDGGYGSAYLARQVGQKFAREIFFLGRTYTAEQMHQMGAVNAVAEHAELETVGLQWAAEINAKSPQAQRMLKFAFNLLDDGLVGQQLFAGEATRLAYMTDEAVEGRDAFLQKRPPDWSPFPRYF
Polio RdRp inh intensity: further read-out of Polio RdRp inh, marked with its call; % elongation; measured here: total intensity read-out; formula for this scale not given here;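 total fluorescence in place of polarization; lower means less elongation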
* = called active by the depositor; i = inactive; . = not tested or not shown; & = joins results of further samples.

SMILES | MbtI inh | Polio RdRp inh | Polio RdRp inh intensity | MenB inh
COC(=O)/C(C#N)=C/c1cc(C)n(CC(C)C)c1C | 0 | 104 | 104 | -3
CCOc1ccc(-c2cc(OC)c3c(C)oc(C)c3c(=O)c2)cc1 | -3 | 104 | 107 | -20
COc1ccc(-n2c(SCC(=O)NCCC3=CCCCC3)nc3n[nH]c(C)c3c2=N)cc1 | i | 100 | 104 | -2
CCN1CCCC1CNC(=O)C1c2ccccc2C(=O)N(CCOC)C1c1c[nH]c2ccccc12 (configuration not stated) | -5 | 103 | 104 | -25
CCN1/C(=C/C=C2/C(=O)N(C)C(=S)N2C)Oc2ccccc21 | -4 | 133 | 166 | -23
O=C(CN1CCN(Cc2ccccc2Cl)S1(=O)=O)Nc1ccccc1 | -6 | 103 | 103 | -11
Cc1cc(C)nc(SCc2ccccc2F)n1 | 3 | 103 | 102 | -11
COC(=O)CN(Cc1ccccc1)S(=O)(=O)c1ccc(F)cc1 | -21 | 101 | 101 | -14
COC(=O)C(Cc1c[nH]c2ccccc12)NC(C)=O (configuration not stated) | 6 | 99 | 103 | 12
CC(C)(C)CC(=O)NC(=S)NC1CCCCC1 | -7 | 99 | 103 | 4
Cc1cc2c(cc3c(=O)n(CC(=O)NCCCN4CC(C)CC(C)C4)ncn32)s1 (configuration not stated) | -3 | 102 | 101 | 1
CC[n+]1c(/C=C2/C=C(C)CC(C)C2)sc2ccccc21 (configuration not stated) | 12 | 100 | 103 | -148
Cc1nnc(NC(=O)c2ccc3c(c2)C(=O)N(Cc2cccnc2)C3=O)s1 | -9 | 98 | 102 | -10
Nc1nonc1-n1nnc(C(=O)N2CCCC2)c1-c1ccccc1 | . | 104 | 109 | -6
O=C(COc1ccccc1)NCCSC1CCCCC1 | -12 | 98 | 104 | -8
O=c1oc2cc(OCc3ccc(C(F)(F)F)cc3)ccc2cc1-c1ccccn1 | . | 101 | 96 | 1
CCc1ccc(OC)c(S(=O)(=O)n2ccnc2)c1 | -5 | 103 | 103 | -15
Cc1[nH]c(=S)[nH]c(=O)c1CC(=O)O | 18 | 104 | 101 | -17
CCC(C)(C)NC(=O)c1cccc(F)c1 | -1 | 101 | 99 | -39
C=Cc1ccc2c(ccn2C(C)=O)c1 | 3 | 101 | 98 | 20
O=S(=O)(NCCC1=CCCCC1)c1ccc(Cl)cc1 | -6 | 103 | 101 | -5
CN1C(=C(C#N)C#N)N(N)c2ccccc21 | i | 101 | 104 | -1
CO/C(=C\c1cccc(O)c1)C(=O)Nc1ccc2ccccc2n1 | -2 | 102 | 97 | .
O=C(Cn1cnc2sc3c(c2c1=O)CCCC3)NCCC(=O)N1CCN(c2ccc(F)cc2)CC1 | -12 | 104 | 109 | -29
CC(C)(C)C(=O)N(Cc1ccccc1)c1ccccn1 | -20 | 101 | 103 | -3
(list continues)
SMILES | MbtI inh | Polio RdRp inh | Polio RdRp inh intensity | MenB inh
COc1ccc(/C=C2\SC(=N)N(c3ccc(OC)cc3)C2=O)cc1 | 39 | 99 | 92 | -11
O=S(=O)(c1cccs1)N(Cc1ccccc1)S(=O)(=O)c1ccccc1F | -58 | 96 | 96 | -4
O=C(Oc1cc(=O)oc2c1c(=O)n1c3c(cccc23)CC1)c1ccc(F)cc1 | 17 | 99 | 100 | -26
CCN1C(=O)C(=Cc2cn(Cc3c(F)cccc3Cl)c3ccccc23)C(=O)N(CC)C1=S | 7 | 99 | 98 | -19
COc1ccc2oc(=O)cc(CN3CCCc4ccccc43)c2c1 | 5 | 101 | 105 | -8
Cc1ccc2c(CN(C)Cc3ccco3)cc(=O)oc2c1 | 3 | 101 | 104 | 9
CC(O)C(C(=O)O)N1C(=O)c2ccccc2C1=O (configuration not stated) | -2 | 99 | 105 | -10
CCN1C(=O)c2ccc(C(=O)NCc3ccccc3)cc2C1=O | -6 | 100 | 102 | -10
CCCc1cc(C(=O)NC2CCCCC2)no1 | 6 | 101 | 100 | -18
CCC(CC)NC(=O)/C=C/c1ccccc1 | -7 | 100 | 101 | 4
CCOc1ncccc1C(=O)Oc1ccc(C(=O)OC)cc1OC | -2 | . | . | -30
Cc1nc(NC(=O)CSc2nc3cccnc3n2C2CCCCC2)sc1C | 0 | 98 | 100 | 15
Cc1cc(CN2CCN(CCC#N)CC2)c(O)c(C2(C)CCCCC2)c1 | -1 | 103 | 99 | -37
CCn1c(C(=O)N2CCc3ccccc3C2)cc2sccc21 | 1 | 100 | 102 | -9
S=c1n(CN2CCCCC2)cnn1CN1CCCCC1 | 21 | 99 | 101 | -16
N#CCC(=O)Nc1ccc(C(=O)OCc2ccccc2Cl)cc1 | 1 | 100 | 99 | .
O=C1NC(=O)/C(=C\c2ccc(N3CCCC3)c(F)c2)N1 | -210 | 103 | 107 | -98
COc1ccc(Nc2c(-c3ccccc3)nc3cnccn23)cc1 | 4 | 102 | 98 | -24
CCN(CC)c1nc2c(S(=O)(=O)c3ccccc3)nnn2c2ccccc12 | 7 | 105 | 106 | 1
Cc1ccc(-c2sc(-c3ccccc3)nc2CC(=O)O)cc1 | 6 | 102 | 105 | .
N/N=C(/Cn1nnc(N2CCCCC2)n1)c1ccc(Cl)cc1 | -5 | 101 | 105 | -10
CCCCCCCCCCCCC(O)C(=O)O (configuration not stated) | -24 | 100&100 | 102&101 | 10
CCOC(=O)N1CCC(NC(=O)c2ccc3c(Cl)c4c(nc3c2)CCCC4)CC1 | -2 | 102 | 100 | 3
O=C(CSc1nncc(=O)[nH]1)NCc1ccccc1 | 11 | 99 | 102 | 1
O=C(OCCCN1CCOCC1)c1ccc(O)cc1O | 2 | 104 | 102 | 4

Filtered by structure: those above with a furan ring, fused or not.
SMILES | MbtI inh | Polio RdRp inh | Polio RdRp inh intensity | MenB inh
CCOc1ccc(-c2cc(OC)c3c(C)oc(C)c3c(=O)c2)cc1 | -3 | 104 | 107 | -20
Cc1ccc2c(CN(C)Cc3ccco3)cc(=O)oc2c1 | 3 | 101 | 104 | 9

Other entries follow:
SMILES | MbtI inh | Polio RdRp inh | Polio RdRp inh intensity | MenB inh
C=CCN(CC=C)S(=O)(=O)c1ccc(NC(=O)c2cccnc2)cc1 | 2 | 104 | 102 | -23
CCC(C)NC(=O)Cn1c(=O)n(CC(=O)NCc2ccc(C)cc2)c(=O)c2sccc21 (configuration not stated) | -2 | 103 | 106 | -1
Clc1ccc(-c2ncnn2-c2ccc(Br)nc2)cc1 | 1 | 102 | 101 | -4
C=CCSc1nnc(Cn2c(=O)sc3ccccc32)n1-c1ccccc1 | 6 | 103 | 103 | -38
CCCNC(=O)c1oc(=O)c2ccccc2c1-c1ccccc1 | -1 | 100 | 100 | -14
CC(C)OC(=O)CSc1n[nH]c(-c2cccnc2)n1 | 7 | 101 | 101 | 28
COc1ccc(NC(=O)COc2cc(=O)n(C)c3ccccc23)cc1OC | -8 | 100 | 103 | -32
COc1cc2c(cc1OC)C(COc1ccccc1OC)N(C(=O)/C=C/c1ccccc1)CC2 (configuration not stated) | 6 | 103 | 102 | 0
N#Cc1ccc(NCC(=O)Nc2ccc(S(=O)(=O)N3CCCCC3)cc2)cc1 | -2 | 101 | 105 | -24
Cc1cc(C(=O)Oc2ccccc2Cc2ccccc2)on1 | 8 | 100 | 97 | -12
Cn1ccnc1P(=S)(c1nccn1C)N1CCOCC1 | 87* | 80* | 74* | -1
C=CCN1CCN(C(=O)c2cccc(C)c2)CC1 | -9 | 107 | 100 | -21
CNS(=O)(=O)c1cccc(C(=O)NCC(c2ccco2)N(C)C)c1 (configuration not stated) | -1 | 104 | 113 | -2
Cc1ccc2c(c1)-c1onc(C(=O)NC3CCCCC3)c1CO2 | -10 | 105 | 104 | -31
COc1cccc(OC)c1C(=O)c1cc[n+](C)cc1 | -11 | 107 | 111 | -13
COc1ccc(-c2cc(-c3ccco3)c(C#N)c(N)n2)cc1 | . | 117 | 131 | -46
CCn1cc(P(=Nc2ccc(C(=O)O)cc2)(N2CCOCC2)N2CCOCC2)c2ccccc21 | 2 | 103 | 95 | -34
CCCc1cc(=O)n(CC(=O)N2CCCc3ccccc32)c(-n2nc(C)cc2C)n1 | 13 | 105 | 102 | -13
Cc1ccc(-c2csc(=Nc3c(C)n(C)n(-c4ccccc4)c3=O)n2CCO)cc1 | 0 | 100 | 100 | -4
COc1ccc(CCNc2cc(C)nc3c(-c4ccc(OC)c(OC)c4)c(C)nn23)c(OC)c1 | 90 | 102 | 103 | -22
CCOC(=O)c1cnc(SCC(=O)OCC(=O)Nc2sc3c(c2C#N)CCC3)nc1N | 12 | 158 | 180 | -13
CCOC(=O)/C(C#N)=C/c1cc(Br)cs1 | -17 | 103 | 102 | -28
COc1ccc2c(C)c(CCC(=O)N3CCCCC3)c(=O)oc2c1 | 123 | 103 | 97 | 20
O=c1ccc2cc(S(=O)(=O)NCCN3CCN(c4cccc(Cl)c4)CC3)ccc2[nH]1 | 3 | 102 | 96 | -17
CN(C)c1ccc(C(=O)N2CCN(C(c3ccccc3)c3ccccc3)CC2)cc1 | 6 | 104 | 105 | 4

Some entries already given, reduced to MenB inh:
molecule	MenB inh
N#Cc1ccc(NCC(=O)Nc2ccc(S(=O)(=O)N3CCCCC3)cc2)cc1	-24
Cc1cc(C(=O)Oc2ccccc2Cc2ccccc2)on1	-12
Cn1ccnc1P(=S)(c1nccn1C)N1CCOCC1	-1

More records.
SMILES | MbtI inh | Polio RdRp inh | Polio RdRp inh intensity | MenB inh
CC(C)C(=O)OCC(=O)Nc1ccc(I)cc1 | -3 | 101 | 106 | .
COCCN=c1scc(C)n1/N=C/C1CC2C=CC1C2 (configuration not stated) | -5 | 115 | 104 | -45
CCOC(=O)C1C(C)=C(c2ccc(Cl)cc2)OC(N)=C1C#N (configuration not stated) | . | 108 | 117 | -6
Cc1cccc(NC(=S)Nn2c(O)c(C)sc2=S)c1 | 93* | 99 | 100 | -67
COC(=O)c1ccc(NCc2cc(=O)n3ccsc3n2)cc1 | -2 | 102 | 103 | 4
COc1ccc(C(=O)CSC2=C(C#N)C(C)(C)C(C#N)=C(N)N2)cc1 | -8 | 84 | 132 | -4
Oc1ccc(O)cc1 | 97* | 99 | 103 | 3
Cn1c(SCC(=O)NC(=O)Nc2ccccc2F)nc2cc(S(N)(=O)=O)ccc21 | 96* | 85* | 85* | -39
Cc1ccc(CNc2ccc(N3CCOCC3)c(Cl)c2)s1 | 9 | 100 | 100 | -9
Cc1ccc(C)c(NC(=O)Cc2nc(CSc3nnc(-c4cccs4)o3)cs2)c1 | -4 | 102 | 110 | -22
COc1cc2cc(C(=O)Nc3ccccc3)c(N)nc2cc1OC | 88 | 102 | 99 | -57
CCn1c(-c2ccccc2)cnc1SCC(=O)N(C)C1(C#N)CCCCC1 | -7 | . | . | -38
Cc1cc2cc(CN(C(=O)N(C)C)C3CCCC3)c(Cl)nc2cc1C | 45 | 105 | 103 | -41
CC(C)Sc1nnc2oc3ccc(S(=O)(=O)N(C)C)cc3n12 | 14 | 6.0* | 27* | 17
CC(=O)N1c2ccccc2Oc2cc3ccccc3cc21 | -116 | 101 | 104 | -38
Cc1nc(-c2ccccc2)cc(=O)[nH]1 | 7 | 102 | 101 | 37*
COCCCn1cnnc1SCC(=O)Nc1ccc(C)c(C)c1 | -18 | 102 | 109 | -12
CS(=O)(=O)N1CCc2cc(C(=O)N3CCCc4ccccc43)ccc21 | -5 | 102 | 106 | -50
Nc1ccc(CC(CCC(=O)O)C(=O)O)cc1 (configuration not stated) | . | 96 | 95 | 2
CCN(CC)CC(=O)OCC1C(C)C=C(C)CC1C (configuration not stated) | 4 | 96 | 96 | -12
CC1Cc2ccccc2N1C(=O)CSc1nc(N)cc(N)n1 (configuration not stated) | -9 | 104 | 100 | -10
N/C(Cc1cccs1)=N\OC(=O)c1ccccc1 | . | 103 | 106 | -22
O=C(Nc1cccc(Cl)c1)Nc1ccccc1N1CCCCC1 | -4 | 101 | 103 | -11
CSc1nc(-c2cccnc2)nc(-c2ccc(OC(F)(F)F)cc2)c1C#N | -6 | 102 | 108 | -22
Cc1ccc(OCC(=O)Nc2ccc3c(c2)OCO3)c(C(=O)c2cc(C#N)c(=O)n(C3CC3)c2)c1 | -3 | 103 | 112 | 13

Profiles, looked up by structure.
`Oc1ccc(O)cc1` as listed: MbtI inh = 97*; Polio RdRp inh = 99; Polio RdRp inh intensity = 103; MenB inh = 3
`CCOC(=O)C1C(C)=C(c2ccc(Cl)cc2)OC(N)=C1C#N` (configuration not stated) as listed: MbtI inh = .; Polio RdRp inh = 108; Polio RdRp inh intensity = 117; MenB inh = -6
`COc1cc2cc(C(=O)Nc3ccccc3)c(N)nc2cc1OC` as listed: MbtI inh = 88; Polio RdRp inh = 102; Polio RdRp inh intensity = 99; MenB inh = -57

Going on with the list:
SMILES | MbtI inh | Polio RdRp inh | Polio RdRp inh intensity | MenB inh
CCOC(=O)Cn1cnc2scc(-c3ccccc3)c2c1=O | 5 | 98 | 101 | 5
c1ccc(-n2ncc3c(N4CCc5ccccc54)ncnc32)cc1 | 11 | 105 | 93 | 1
C=CCNC(=O)c1c(N)n(-c2ccc(C)cc2)c2nc3ccccc3nc12 | -76 | 106 | 109 | -15
Cc1ccc(NC(=O)OC2COC3C(OC(=O)Nc4ccc(C)cc4)COC23)cc1 (configuration not stated) | -3 | 103 | 110 | -17
Cc1nn(-c2ccccc2)c2[nH]c(=O)c(CNCc3cccnc3)cc12 | 40 | 101 | 98 | 6
Cc1c(C(=O)N2CCN(c3ccc(Cl)cc3)CC2)oc2c1-c1[nH]ncc1CC2 | -10 | 102 | 105 | -6
Cc1c(Br)cc(C(=O)N2CCCC2)c(C)c1C | -10 | 101 | 100 | -17

Random draw from the library; overall some 1.7% were active at least once.
